MenB inh: M. tuberculosis MenB inhibitors, primary screen, biochemical, absorbance | 1,4-dihydroxy-2-naphthoyl-CoA synthase (Mycobacterium tuberculosis (strain ATCC 25618 / … | MenB enzyme assay, absorbance read-out; some hits fall short of the stated cut | inhibition, %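 (about 12 µg/mL by stock and volumes)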 | 100,000 tested, 0.43% active | AID 540299, 2011;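 active = mean of two replicates above 30%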;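 note: 0% = no compound and 100% = wells with inactive enzyme; the first replicate is given; strong numbers were not always called active; inactives centre near -10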
Target sequence (P9WNP5 whole entry, looked up): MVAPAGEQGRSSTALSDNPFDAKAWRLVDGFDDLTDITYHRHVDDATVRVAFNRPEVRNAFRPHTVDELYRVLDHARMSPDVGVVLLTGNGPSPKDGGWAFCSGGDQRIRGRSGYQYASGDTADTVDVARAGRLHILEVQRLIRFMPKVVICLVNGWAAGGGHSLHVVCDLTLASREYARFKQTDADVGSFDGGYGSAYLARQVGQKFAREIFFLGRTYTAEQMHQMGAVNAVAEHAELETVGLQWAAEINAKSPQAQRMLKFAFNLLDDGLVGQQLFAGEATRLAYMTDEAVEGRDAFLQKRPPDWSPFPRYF
Mtb MbtI inh: MbtI salicylate synthase inhibitors, primary screen, biochemical, fluorescence intensity. P9WFX0. purified MbtI enzyme, fluorescence intensity read-out. inhibition, %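 (about 17 µg/mL by stock and volumes)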. 100,000 tested, 0.89% active. AID 493033, 2011;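 active = above 50% in both replicates, above 80% if mildly self-fluorescent; inactive = the rest, strongly fluorescent compounds included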;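 note: 0% = mean of negative and 100% = mean of positive controls; one replicate is shown; some compounds called inactive have numbers as strong as hits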
PV pol inh: poliovirus RdRp elongation inhibitors, primary screen, biochemical, fluorescence polarization, total intensity | Genome polyprotein (Poliovirus type 1 (strain Mahoney)), P03300 | poliovirus polymerase elongation; hits give low values | % elongation, % (compound at 16.7 µg/mL) | 150,000 tested, 0.66% active | AID 588519, 2011; in the data active = % elongation below about 90%; note: some results filed as inactive read as strong as hits
Target sequence (P03300 1749-2209 limits assumed): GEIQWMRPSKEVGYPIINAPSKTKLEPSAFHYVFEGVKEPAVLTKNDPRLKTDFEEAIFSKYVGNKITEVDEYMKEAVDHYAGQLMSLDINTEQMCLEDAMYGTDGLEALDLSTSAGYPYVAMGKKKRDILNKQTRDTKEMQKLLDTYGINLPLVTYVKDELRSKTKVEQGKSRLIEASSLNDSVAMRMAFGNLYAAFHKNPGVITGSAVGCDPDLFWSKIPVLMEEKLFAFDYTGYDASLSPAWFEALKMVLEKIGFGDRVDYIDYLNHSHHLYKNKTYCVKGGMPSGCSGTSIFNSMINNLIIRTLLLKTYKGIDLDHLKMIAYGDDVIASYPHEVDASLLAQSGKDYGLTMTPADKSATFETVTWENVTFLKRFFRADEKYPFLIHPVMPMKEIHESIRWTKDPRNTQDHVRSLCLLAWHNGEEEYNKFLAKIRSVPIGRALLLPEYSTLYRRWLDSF
PV pol inh intensity: recorded beside PV pol inh, whose call it bears; % elongation; measured here: total intensity read-out; formula for this scale not given here;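 total fluorescence in place of polarization; lower means less elongation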
* hit, by the source's call; i = inactive; . = no result given; & = joins results of further samples.

SMILES	MenB inh	Mtb MbtI inh	PV pol inh	PV pol inh intensity
Cc1nn(-c2ccccc2)c2nc3oc(C(=O)c4ccc(Br)cc4)c(N)c3c(-c3cccnc3)c12	-8	-6	67	176
N#Cc1c(-c2ccccc2)cc(-c2ccccc2)nc1SCC(O)CS(=O)Cc1ccccc1 (stereo unspecified)	-52	80	100	104
Cc1ccc(NC(=O)N2CCC(n3nnc(-c4cccs4)n3)CC2)cc1	-11	-13	106	103
CC1CCN(c2nc3nonc3nc2Nc2ccc3c(c2)OCO3)CC1	-6	.	108	104
CCOC(=O)c1cc(OCC(=O)NC(C)C(C)C)cc(C(=O)OCC)c1 (stereo unspecified)	-77	-8	101	102
COCc1c(C(=O)Nc2cc(C(F)(F)F)ccc2-n2cncn2)oc2ccccc12	7	-2	108	111
CC1CCC(NC(=O)CCC2=NS(=O)(=O)c3ccccc3N2)CC1 (stereo unspecified)	-6	-16	102	103
COc1ccc(Cc2nnc3n2N=C(c2ccc(CNC(C)=O)o2)CS3)cc1	-25	36	104	109
COc1ccc(NC(=O)c2cc(C)no2)cc1	11	1	99	101
Cn1c(SCc2ccccc2)nc(N)cc1=O	-5	-7	102	103
Nc1[nH]c(=O)[nH]c(=O)c1N=Nc1ccc(SC(F)F)cc1	-65	8	105	103
Clc1ccccc1-c1nnc(-c2ccccc2CN2CCN(c3ccccc3)CC2)o1	5	-8	101	100
Cn1nnnc1SCC1=C(C(=O)O)N2C(=O)[C@@H](NC(=O)[C@H](O)c3ccccc3)[C@H]2SC1	-1	3	97	101
CC(=C/C(=O)O)/C=C/c1cccs1	-4	4	101	103
O=C(Nc1cc(=O)[nH][nH]1)c1cc(-c2ccc(F)cc2)nc2ccccc12	.	-6	99	93
N#Cc1ccccc1Sc1ccccc1C(=O)NCC(c1ccco1)N1CCCC1 (stereo unspecified)	0	56	105	112
O=C(Nc1cccc(-c2nc3ccccc3c(=O)o2)c1)c1ccccc1Br	-30	13	101	107
CCOc1ccc2c(c1)C(C)=CC(C)(C)N2	-1&-2	-273&-76	99&97	101&95
C[C@@H](C(=O)Nc1ccccc1N1CCOCC1)N1C(=O)C2CC=CCC2C1=O (stereo partly specified)	-1	7	103	104
O=C1c2ccccc2C(=O)N1c1ccc2c(C(F)(F)F)cc(=O)oc2c1	-11	-13	104	105
Cn1nc(C(=O)N2CCCC2)c2ccccc2c1=O	15	1	102	99
Cc1sc2ncnc(Sc3ncnc4sc(C)c(C)c34)c2c1C	-25	.	100	91
CCN(C(=O)Cn1ncc(Cl)c(Cl)c1=O)C1CCS(=O)(=O)C1 (stereo unspecified)	-12	-4	.	.
CN1/C(=C/C=C/c2oc3ccccc3[n+]2C)Oc2ccccc21	-64	10	69	196
COc1ccc(-c2cc(C(=O)O)c3c(C)[nH]nc3n2)cc1	15	115	101	104
CCOC(=O)c1sc(NC(=S)NCc2cc(C)n(C)n2)c(C(=O)OCC)c1C	-16	0	102	103
O=C(O/N=C1/CCCc2nonc21)C(F)(F)F	28	1	97	104
O=C(Nc1ccccc1)OC(CSc1ccccn1)CSc1ccccn1	-9	-8	108	107
O=C(Nc1cc(C(F)(F)F)cc(C(F)(F)F)c1)C(=S)NCCNc1cccc2ccccc12	-8	.	71*	72*
Cc1nc(SCc2ccccc2)n[nH]1	-12	-7	101	103
CCn1c(CC(=O)Nc2cccc(OC)c2)nnc1SCC(=O)c1ccccc1	23	3	105	101
Cn1c(-c2cccs2)c(CNCc2ccccc2)c2ccccc21	-25	19	103	102
CCCC1NC(=S)N(c2ccccc2)C1=O (stereo unspecified)	-23	20	104	102
O=C(CSc1nnc(Cn2nnc3ccccc32)o1)N1c2ccccc2CCc2ccccc21	-47	-4	105	104
NNC(=O)Cc1cccc2ccccc12	-14	-7	103	100
CCOc1ccc(S(=O)(=O)N/N=C(\C)C2CCCCC2)cc1	-2	-5	101	108
CCOc1ccccc1N1CC(C(=O)O)CC1=O (stereo unspecified)	.	-11	101	107
O=C(CSc1nc2ccccc2c(=O)n1-c1cccc(S(=O)(=O)N2CCCC2)c1)c1ccc(O)cc1O	-16	-9	95	103
O=C(c1cccn1-c1nnc(N2CCCCC2)s1)N1CCCC1	-38	12	100	98
Cc1ccc(C(=O)CSc2nc3cc(C(F)(F)F)ccc3n2C(C)C)cc1	-1	-1	106	107

Retrieved by compound from above, 2 records:
SMILES	MenB inh	Mtb MbtI inh	PV pol inh	PV pol inh intensity
COc1ccc(Cc2nnc3n2N=C(c2ccc(CNC(C)=O)o2)CS3)cc1	-25	36	104	109
N#Cc1ccccc1Sc1ccccc1C(=O)NCC(c1ccco1)N1CCCC1 (stereo unspecified)	0	56	105	112

More compounds follow:
SMILES	MenB inh	Mtb MbtI inh	PV pol inh	PV pol inh intensity
CN1CCCN=C1/C=C/c1cccs1	2&-7	5	98&102	107&100
O=C(O)CCCC(=O)Nc1nncs1	-6	-3	103	103
OC(COCC1COc2ccccc2O1)C[N+]1(Cc2ccccc2)CCCC1 (stereo unspecified)	.	-7	103	99
Cc1ccc2cc(C#N)c(SCC(=O)Nc3ccccc3N3CCOCC3)nc2c1C	24	-4	100	100
O=C(Nc1cccnc1Sc1ccc(Cl)cc1)c1ccc(C(F)(F)F)cc1	0	-12	110	114
CCC(C(=O)Nc1cccc(OC)c1)N1C(=O)CCn2nccc21 (stereo unspecified)	18	-1	102	102
O=c1cccc2n1CC1CC2CN(C(=S)NC2Cc3ccccc3C2)C1 (stereo unspecified)	12	6	99	101
COc1cccc(/C=C2/CC(C(C)(C)C)C/C(=C\c3cccc(OC)c3OC)C2=O)c1OC (stereo unspecified)	-37	8	102	102
COC(=O)CNC(=O)c1ccc(C)c(C)c1	-17	-3	104	102
O=C(COc1ccccc1)N1CCN(Cc2ccccn2)CC1	4	.	94	99
CC1CCc2onc(C(=O)NC3=NN(c4ccccc4)CC3)c2C1 (stereo unspecified)	-13	-12	104	106
COc1ccc(-c2noc(CC(=O)N(C)c3ccc(F)cc3)n2)cc1	-23	-12	106	103
Cc1noc(C)c1C(=O)O/N=C(\N)Cc1ccc(-c2csnn2)cc1	14	8	100	104
Cc1n[nH]c(=O)nc1NCCCN(C)C	-5	-2	102	102
N#CCCN(Cc1cccnc1)C(=S)NC1CCCCC1	-37	-5	102	109
COc1ccc(C(=O)N(Cc2ccccc2)c2ccccn2)cc1	-5	2	103	104
Cc1ccc2cc3cc(C(=O)NCCC4=CCCCC4)oc3nc2c1	-15	-30	103	108
CCN(CC(=O)NCc1cccs1)C(=O)c1cccc(S(=O)(=O)N(CC)CC)c1	-18	-15	105	108
NS(=O)(=O)c1cc(C(=O)O)cs1	-18	-13	101	106
COc1cc(/C=C/C(=O)Nc2c3c(nn2C(C)(C)C)CSC3)cc(OC)c1OC	-9	0	101	102
Cn1c(Cc2cccs2)nnc1SCc1ncc(-c2ccccc2)o1	-20	22	96	97
CCCOc1ccc(C(=O)N2CCOCC2)cc1OC	-13	.	104	112
CCC(C)NC(=O)c1onc(C)c1Cl (stereo unspecified)	-5	-5	100	99
O=C(NC(=S)Nc1cccc(O)c1)C1CCCCC1	12	9	103	104
COCCNc1nnc(SCc2nnc(-c3ccc(F)cc3)o2)s1	-24	-15	115	116
c1csc(-c2nnc(SCC3COc4ccccc4O3)n2CC2CCCO2)c1 (stereo unspecified)	-9	-25	104	99
O=C(Nn1c(=O)[nH]c2ccccc2c1=O)c1ccco1	-19	152	100	101
Cc1cn2c(nc1=O)O[C@@H]1C[C@H]2O[C@@H]1CO	-30	-2	103	95
O=C(Cn1c(=O)n(CCCS(=O)(=O)C2CCCCC2)c(=O)c2ccccc21)Nc1ccc(F)cc1	1	5	100	102
CCOC(=O)c1c(C)[nH]c(C2=NNC(=NC)SC2)c1C	-48	7	113	123

A run of entries taken from the entries so far, for reference:
SMILES	MenB inh	Mtb MbtI inh	PV pol inh	PV pol inh intensity
COC(=O)CNC(=O)c1ccc(C)c(C)c1	-17	-3	104	102
O=C(COc1ccccc1)N1CCN(Cc2ccccn2)CC1	4	.	94	99
CC1CCc2onc(C(=O)NC3=NN(c4ccccc4)CC3)c2C1 (stereo unspecified)	-13	-12	104	106
COc1ccc(-c2noc(CC(=O)N(C)c3ccc(F)cc3)n2)cc1	-23	-12	106	103
Cc1noc(C)c1C(=O)O/N=C(\N)Cc1ccc(-c2csnn2)cc1	14	8	100	104
Cc1n[nH]c(=O)nc1NCCCN(C)C	-5	-2	102	102
N#CCCN(Cc1cccnc1)C(=S)NC1CCCCC1	-37	-5	102	109
COc1ccc(C(=O)N(Cc2ccccc2)c2ccccn2)cc1	-5	2	103	104
Cc1ccc2cc3cc(C(=O)NCCC4=CCCCC4)oc3nc2c1	-15	-30	103	108
CCN(CC(=O)NCc1cccs1)C(=O)c1cccc(S(=O)(=O)N(CC)CC)c1	-18	-15	105	108
NS(=O)(=O)c1cc(C(=O)O)cs1	-18	-13	101	106
COc1cc(/C=C/C(=O)Nc2c3c(nn2C(C)(C)C)CSC3)cc(OC)c1OC	-9	0	101	102
Cn1c(Cc2cccs2)nnc1SCc1ncc(-c2ccccc2)o1	-20	22	96	97
CCCOc1ccc(C(=O)N2CCOCC2)cc1OC	-13	.	104	112
CCC(C)NC(=O)c1onc(C)c1Cl (stereo unspecified)	-5	-5	100	99
O=C(NC(=S)Nc1cccc(O)c1)C1CCCCC1	12	9	103	104
COCCNc1nnc(SCc2nnc(-c3ccc(F)cc3)o2)s1	-24	-15	115	116
c1csc(-c2nnc(SCC3COc4ccccc4O3)n2CC2CCCO2)c1 (stereo unspecified)	-9	-25	104	99
O=C(Nn1c(=O)[nH]c2ccccc2c1=O)c1ccco1	-19	152	100	101

More results.
SMILES	MenB inh	Mtb MbtI inh	PV pol inh	PV pol inh intensity
COc1ccc(C(=O)c2ccccc2O)c(O)c1	-11&-8	-4&-2	99&99	104&100
O=C(c1ccc(C(F)(F)F)cc1)n1nccc1-c1cc(-c2ccccc2)no1	-9	4	101	103
Cc1ccccc1-c1ocnc1C(=O)Nc1cccnc1	30*	4	102	101
CCCC(=O)Nc1ncnc2c1ncn2C1O[C@@H]2COP(=O)(O)O[C@H]2[C@H]1OC(=O)CCC (stereo partly specified)	3	-11	102	104
Cc1ccc(C)c(-n2c(SCC(=O)NCC(C)C)nnc2-c2cccnc2)c1	-21	3	102	107
O=C(O)c1ccc(N2CCCCC2)cc1	-6	.	110	113
Nc1ccc(-c2cc3ccccc3o2)cc1	-29	.	103	106
O=C(c1ccccc1F)N1CCN=C1c1ccccc1	10	-15	102	103
Cc1ccc(NC(=O)CN2C(=O)c3ccccc3C2=O)c(C)c1	-4	-24	100	100
CSc1ccccc1NC(=O)CSc1cccc[n+]1[O-]	.	-6	102	108
Cc1c(Cc2ccc(Cl)cc2)c(=O)n2c([nH]c3ccccc32)c1C#N	-3	i	103	102
Cn1c(=O)c2c(ncn2CC(=O)NCC#N)n(C)c1=O	-17	-3	105	103
COC(=O)c1ccc(-c2ccco2)n1CC(=O)NC(C)c1ccccc1 (stereo unspecified)	-21	19	103	102
CC(C)(C)N1CC(OC(=O)c2ccc(Cl)cc2)C1	.	-9	101	107
CC(C)CCNC(=O)C1CCN(C(=O)c2cc3sccc3n2C)CC1	-18	0	102	97
CCCCNC(=O)C1Cc2ccccc2CN1S(=O)(=O)c1cccs1 (stereo unspecified)	-33	-7	106	100
CCCN(CCC)C(=O)c1cccc(S(=O)(=O)N2CC(C)CC(C)C2)c1 (stereo unspecified)	.	-5	101	101
CC(C)/C=C1\CCCC\C1=N/n1cnnc1	.	-10	101	104
CCOC(=O)c1oc2ccc(Br)cc2c1COC(=O)CN1C(=O)C2CC=CCC2C1=O (stereo unspecified)	-18	-5	103	111
CC(C)C1NC(=S)N(c2ccccc2)N1 (stereo unspecified)	-82	-106	100	103

Compounds were not picked by outcome; any-hit rate near 2%.
